Bioassay records from PubChem.
Anaer choline gr: growth inhibitors of anaerobic choline-fed gram-negatives, minimal medium, absorbance | calls only | actives 0.2% (n = 55,000) | Gram-negative bacterium anaerobic choline minimal medium; stronger effect = lower value; many inactives read as strong as hits in the columns shown;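 active = growth z-score on choline under -2 at 7 or 20 h with little or no fall on glycerol, limits in tiers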;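 also: stock transfer was 300 nL into about 50 µL; the organism is E. coli; final concentration not given here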
Anaer choline gr early: recorded beside Anaer choline gr, whose call it bears; z-score; measured here: choline growth z-score, timepoint 1;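 score of optical density at 7 h as mean of two plates; lower means less growth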
* = called active by the depositor; i = inactive; & = joins results of further samples. Not all compounds are listed; count on the stated rates, not on these rows.

| Compound | Anaer choline gr | Anaer choline gr early |
| --- | --- | --- |
| O=C1CC(c2cc(F)cc(F)c2)Cc2nc(N3CCOCC3)ncc21 (stereo unspecified) | i | 0.95 |
| O=C(NC1CCCC1)C1CCCN(c2ccc(-c3ccc(F)cc3)nn2)C1 (stereo unspecified) | i | -0.16 |
| Cc1ccc2nc(CNC(=O)c3nc(-c4ccc(S(=O)(=O)N(C)C)cc4)no3)[nH]c2c1 | i | -1.1 |
| Cn1c(=O)n(C)c2cc(Sc3ccc(F)cc3)c(NS(=O)(=O)c3ccc(Cl)cc3)cc21 | i | 0.55 |
| Cc1csc(NC(=O)CN(C)S(=O)(=O)c2cc3c(cc2C)NC(=O)C(C)O3)n1 (stereo unspecified) | i | -0.09 |
| CCOC(=O)c1cc(S(=O)(=O)N(C)CC(=O)N2CCOCC2)cn1C | i | -0.57 |
| Cc1ccc2c(c1)N(C(=O)CSc1nnc3n(Cc4ccco4)c(=O)c4sccc4n13)CCO2 | i | -1.6 |
| COc1ccc(C2c3c(n(C)c4ccccc34)C(=O)N2CC(=O)Nc2cc(C)ccc2C)cc1 (stereo unspecified) | i | 0.48 |
| COc1cc(OC)cc(N2C(=O)CC(c3ccc(OC)c(OC)c3)CC2=O)c1 | i | -0.01 |
| O=C(Nc1nccs1)c1c2c(nc3ccccc13)C(=O)N(C1CCCCC1)C2 | i | 0.05 |
| CCn1c(=O)c(N2CCC(C(=O)NCCc3c[nH]c4ccc(OC)cc34)CC2)nc2ccccc21 | i | 1.1 |
| CCOC(=O)C1CCN(C(=O)c2cc3n(n2)CC(C)(C(=O)NC2CCCC2)N(C)C3=O)CC1 (stereo unspecified) | i | 0.65 |
| CCCn1ccnc(N2CCOCC2)c1=O | i | -0.06 |
| O=C(CN1C(=O)C2CCCC2=Nc2ccccc21)NCc1ccc(Cl)cc1 (stereo unspecified) | i | -1.4 |
| CCc1nc(-c2ccc3c(c2)CCN3C(=O)CCc2c[nH]c3ccccc23)no1 | i | 2.1 |
| O=C(c1ccc(N2C(=O)CCS2(=O)=O)cc1)N1CCc2ccccc21 | i | -0.14 |
| CCOC(=O)c1ccc2c(c1)N(Cc1cc(=O)n3ccccc3n1)C(=O)c1ccccc1S2 | i | -0.07 |
| O=C(Nc1ccc(Cn2cnc(-c3nc(-c4cccc(F)c4)no3)c2)cc1)c1ccccc1F | i | 0.57 |
| CCCc1cc(=O)[nH]c2nnc(SC(C)C)n12 | i | 0.49 |
| Cn1c(=O)c2sccc2n2c(SCc3cccc(Cl)c3)nnc12 | i | 0.78 |
| CCC(=O)Nc1cc(F)c2[nH]c(=O)ccc2c1 | i | -0.51 |
| CCc1ccccc1NC(=O)Nc1cc2sccc2n1CC | i | 0.24 |
| O=C1COc2cc(S(=O)(=O)N3CCCC(C(=O)NC4CCCC4)C3)c(Cl)cc2N1 (stereo unspecified) | i | -0.24 |
| Cc1c2c(=O)n(-c3ccccc3)[nH]c2cc(=O)n1CCc1c[nH]c2ccccc12 | i | 0.87 |
| Cc1ccccc1C(=O)Nc1cccc(-c2nc(-c3ccccc3)no2)c1 | i | -0.13 |
| Cc1cc(C)c(NC(=O)Cn2nc(-c3ccc(C)c(S(N)(=O)=O)c3)c3c(c2=O)CCCC3)c(C)c1 | i | -0.18 |
| COc1ccc(-c2cnc3c(-c4ccccc4)c(C)nn3c2N)cc1OC | i | 0.82 |
| COc1ccc(-c2nnc(N3CCC(C)CC3)c3ccccc23)cc1 | i | 0.7 |
| O=S(=O)(c1ccc(Cl)cc1)c1nc(-c2ccc(F)cc2)oc1NCc1ccco1 | i | 1.3 |
| Cc1cc2c(cc3n2CC(C)(C(=O)NC2CCCCC2)N(CCc2ccc(Cl)cc2)C3=O)o1 (stereo unspecified) | i | 0.38 |

Compound profiles, as listed above. Screens in order: Anaer choline gr	Anaer choline gr early
O=C(c1ccc(N2C(=O)CCS2(=O)=O)cc1)N1CCc2ccccc21 is listed with i	-0.14
COc1ccc(-c2nnc(N3CCC(C)CC3)c3ccccc23)cc1 is listed with i	0.7
Cc1ccccc1C(=O)Nc1cccc(-c2nc(-c3ccccc3)no2)c1 is listed with i	-0.13
O=S(=O)(c1ccc(Cl)cc1)c1nc(-c2ccc(F)cc2)oc1NCc1ccco1 is listed with i	1.3

More compounds follow:
| Compound | Anaer choline gr | Anaer choline gr early |
| --- | --- | --- |
| CCN1CCN(c2ccc(N3CCCC(C(=O)N4CCN(c5ccccc5)CC4)C3)nn2)CC1 (stereo unspecified) | i | 0.75 |
| NC(=O)c1ncn(C2O[C@H](CO)[C@@H](O)[C@H]2O)c1N (stereo partly specified) | i | 0.18 |
| CC1CCCC(C)N1CCCN1C(=O)c2cc3occc3n2CC1(C)C(=O)NC1CCCCC1 (stereo unspecified) | i | 0.28 |
| CNC(=O)c1ccc(-c2nc3cc(NS(=O)(=O)c4cc(Cl)ccc4OC)ccc3n2C)cc1 | i | 0.29 |
| Cc1nc(-c2cc(S(=O)(=O)N3CCN(c4ccccc4Cl)CC3)c(C)s2)cs1 | i | 0.79 |
| CCN(CCN(C)C)c1ccc(C(=O)O)cc1NS(=O)(=O)c1cc(C)c(C)cc1C | i | 0.38 |
| CCOC(=O)c1cc(S(=O)(=O)N(C)CC(=O)NCC2CCCO2)cn1C (stereo unspecified) | i | -0.04 |
| Cc1ccc(-c2nc3c4ccccc4n(CC(=O)c4c[nH]c5ccccc45)c(=O)n3n2)cc1 | i | -0.15 |
| CC(C)Cn1c(=O)c2ccc(C(=O)NC(C)C)cc2n2c(=S)[nH]nc12 | i | 0.41 |
| COCCCNC(=O)CCCn1nc(-c2ccccc2)c2ccccc21 | i | 0.25 |
| COc1ccccc1OCC(O)Cn1c(C2CC(=O)N(c3ccccc3)C2)nc2ccccc21 (stereo unspecified) | i | 0.73 |
| Cc1nnc(NC(=O)CSc2ccc3nnc(-c4ccccc4)n3n2)s1 | i | -0.95 |
| COc1ccc(C)cc1NS(=O)(=O)c1ccc(Cc2cc(C)n[nH]c2=O)cc1 | i | 0.65 |
| COc1ccccc1CC(=O)Nc1ccc(-c2noc(-c3cc(Cl)ccc3OC)n2)cc1 | i | 0.66 |
| CC(C)NC(=O)CN1C(=O)C2CCCCN2c2ccc(S(=O)(=O)N3CCCCC3)cc21 (stereo unspecified) | i | -0.14 |
| COc1ccc(C2CC(=O)c3cnc(NC(=O)COc4ccccc4)nc3C2)cc1 (stereo unspecified) | i | 0.39 |
| CCSc1nc2ncn(CC(=O)Nc3ccc(OC)c(Cl)c3)c(=O)c2s1 | i | 0.52 |
| O=C(NCCc1ccc(Cl)cc1)c1ccc(CN2CC(=O)N3CSCC3C2=O)cc1 (stereo unspecified) | i | -0.33 |
| Cc1nc(N(C)C)cc(N2CCN(C(=O)c3cccc(Cl)c3)CC2)n1 | i | -0.09 |
| O=C(O)C1CCN(c2nnc(N3CCCCC3)c3ccccc23)CC1 | i | -0.99 |
| CC(=O)Nc1ccc(-c2noc(C3CCCN(C(=O)c4ccc(F)cc4)C3)n2)cc1 (stereo unspecified) | i | 0.07 |
| O=C(c1ccc2c(c1)N(CC(=O)N1CCc3ccccc31)C(=O)C1CCCCN21)N1CCCCC1 (stereo unspecified) | i | 1.1 |
| CCn1c(CN2CCCCC2)nc2cc(NC(C)=O)ccc21 | i | 0.1 |
| O=C(O)c1cc(N2CCCN(c3ncccn3)CC2)ccc1NC(=O)C1CCCC1 | i | 1.2 |
| COCCn1c(CNC(=O)CC(C)C)nc2cccnc21 | i | -2.2 |
| O=C(NCc1c(-c2ccccc2)nc2n1CCS2)c1ccccc1Br | i | 0.4 |
| O=S1(=O)C[C@H](N2CCCC2)[C@@H](S(=O)(=O)c2ccc(F)cc2)C1 | i | -0.15 |
| CCN(CC)S(=O)(=O)c1cc(-c2n[nH]c(=O)c3c2CCCC3)ccc1C | i | 0.54 |
| C=CCn1nnc(NCc2ccc(-c3ccc(Cl)cc3)o2)n1 | i | -1.8 |
| Fc1ccc(-c2csc(Nc3ccccn3)n2)cc1 | i | 1.2 |
| O=C(NCCc1cscn1)C1CCN(C(=O)c2cccs2)CC1 | i | -2.1 |
| CC(C)NC(=O)CSc1nnc2n(CCC(=O)NC3CCCCC3)c(=O)c3ccccc3n12 | i | -0.28 |
| CCn1cnc(S(=O)(=O)N2CCCC(C(=O)Nc3nc(C)cs3)C2)c1 (stereo unspecified) | i | 0.19 |
| Cc1nc(N2CCOCC2)cc(N2CCN(C(=O)c3ccc(Br)o3)CC2)n1 | i | 0.99 |
| CCOC(=O)c1cnc(SCC(=O)Nc2ccc(C)cc2C)nc1N | i | 0.73 |
| O=C1CCc2c(ccc3ccccc23)O1 | i | 0.55&0 |
| O=C(Nc1ccc(-n2cccc(C(=O)NCCc3ccccc3)c2=O)cc1)c1ccc(F)cc1 | i | 0.38 |
| Cc1nc(CN2C(=O)COc3cc(S(=O)(=O)N4CCC(C)CC4)c(Cl)cc32)no1 | i | 2 |
| COC(=O)CC1=CC(=O)N(CC(=O)Nc2ccc3c(c2)OCO3)c2cc(C)c(C)cc2N1 | i | 0.57 |
| Cc1cc(NC(=O)Nc2ccccc2)c2[nH]c(C(=O)NCCN3CCOCC3)c(-c3ccccc3)c2c1 | i | -0.49 |
| COc1cc2c(=O)n(Cc3ccc(C(=O)NC4CC4)cc3)c(=O)n(Cc3ccc(F)cc3Cl)c2cc1OC | i | -1.3 |
| COc1cccc(N2CCN(C(=O)CN3CCSc4ccccc43)CC2)c1 | i | 1.6 |
| Cc1nc2c(c(C)nn2-c2ccccc2)c(C)c1CCC(=O)NCCCN1CCC(Cc2ccccc2)CC1 | i | 1.2 |
| CC1(C)O[C@@H]2CC3C4CCC5=CC(=O)C=C[C@]5(C)C4[C@@H](O)C[C@]3(C)[C@]2(C(=O)CO)O1 (stereo partly specified) | i | 0.68 |
| CC[C@H](C)NC(=O)c1snc(C(=O)NC(C)C)c1N | i | -0.37 |
| CNCc1ccc(-c2ccccc2Cl)o1 | i | -0.41 |
| CC1CCN(Cc2nc(Cn3ccn4nc(-c5cccs5)cc4c3=O)no2)CC1 | i | 0.71 |
| CCOC(=O)c1cc2n(n1)CC(C)(C(=O)NC1CCCCC1)N(c1ccc(C)c(F)c1)C2=O (stereo unspecified) | i | -0.18 |
| CCC(=O)Nc1ccc(C)cc1-c1nnc(SCC(=O)Nc2cc(C)ccc2C)[nH]c1=O | i | 0.24 |
| CN(CCOc1ccc(-c2ccc3c(c2)OCO3)cc1C(C)(C)C)CC(=O)O | i | 0.6 |
| Cc1ccc(Nc2nc3ccccc3n3cnnc23)c(Cl)c1 | i | -0.73 |
| Cc1nn(CCC(=O)NCc2ccccc2Br)c(=O)c2noc(C)c12 | i | -0.58 |
| Cc1ccc(-c2noc(C3CCCN3C(=O)CNS(=O)(=O)c3ccc(Cl)cc3)n2)cc1 (stereo unspecified) | i | 0.95 |
| COCCNC(=O)Cn1c(=O)c(C(F)(F)F)nc2ccccc21 | i | -1.5 |
| CCC(=O)Nc1ccc(CCc2nc3ccccc3n2-c2ccccc2)cc1 | i | -0.46 |
| Cc1csc2ncc(C(=O)N3CCN(c4ccccc4)CC3)c(=O)n12 | i | -0.9 |
| CCC(CC)C(=O)Nc1onc2c1CC(C)CC2 (stereo unspecified) | i | -0.25 |
| Cc1cc2c(cc1C(=O)Nc1ccc(N3CCCC3)c(C(N)=O)c1)OCCCO2 | i | -0.13 |
| COc1ccc(Br)cc1CNC(=O)COCc1cc(-c2ccc3c(c2)OCO3)on1 | i | 0.57 |
| COc1ccc2[nH]cc(CCNC(=O)NC3CCCCC3)c2c1 | i | 0.38 |

Later entries
| Compound | Anaer choline gr | Anaer choline gr early |
| --- | --- | --- |
| O=C(C1CCCN(S(=O)(=O)c2cc(-c3noc(C4CCCC4)n3)cs2)C1)N1CCOCC1 (stereo unspecified) | i | 0.24 |
| COc1ccc(-c2noc3ncnc(N4CCC(C(=O)N5CCCCC5)CC4)c23)cc1 | i | -1.6 |
| Cc1ccccc1OCCCn1c(C(C)O)nc2ccccc21 (stereo unspecified) | i | 0.34 |
| O=C(Cn1c(=O)ccc2cc(S(=O)(=O)N3CCCC3)ccc21)N1CCN(c2ccccn2)CC1 | i | -0.03 |
| CCOc1ccccc1-c1noc(Cn2cnc3c(cnn3-c3ccccc3)c2=O)n1 | i | 0.45 |
| O=c1ccn(-c2ccc(Cl)cc2)nc1-c1nc(-c2ccccc2Cl)no1 | i | -0.88 |
| CS(=O)(=O)NCCOc1ccc(-c2ccccc2)nn1 | i | -1.5 |
| CC(C1CC1)n1nccc1NC(=O)COc1ccc(Cl)cc1 (stereo unspecified) | i | 0.06 |
| COCCCNC1=NCCNC12CCN(S(=O)(=O)c1ccccc1C)CC2 | i | -1.6 |
| CCOC(=O)c1[nH]c(C)c(S(=O)(=O)Nc2cccnc2)c1C | i | -0.8 |
| COc1ccc(N(C(=O)c2cccnc2)S(=O)(=O)c2ccc3c(c2)n(C)c(=O)n3C)cc1 | i | 0.09 |
| O=c1ccc2cc(S(=O)(=O)N3CCC(N4CCCCC4)CC3)ccc2[nH]1 | i | 0.45 |
| CC(C)(C)c1ccc(-c2nn3c(-c4cccnc4)nnc3s2)cc1 | i | 0.26 |
| O=C(COc1ccccc1)Nc1ncc2c(n1)CC(c1ccccc1)CC2=O (stereo unspecified) | i | -0.03 |
| COc1ccc(C)cc1NC(=O)NCc1nnc(C(=O)Nc2ccccc2)s1 | i | -0.18 |
| CC(C)NC(=O)N(C)Cc1ccoc1 | i | 0.28 |
| CCOC(=O)C1CCN(S(=O)(=O)c2cc3c(cc2Br)CCN3C(=O)C2CC2)CC1 | i | -1.5 |
| O=C(c1ccccc1Cl)N1CCC(N2CCN(Cc3ccc(F)cc3)C2=O)CC1 | i | 0.96 |

Part of the list above, set out differently.
Order of results – Anaer choline gr, Anaer choline gr early
O=c1ccn(-c2ccc(Cl)cc2)nc1-c1nc(-c2ccccc2Cl)no1
→ i, -0.88
CS(=O)(=O)NCCOc1ccc(-c2ccccc2)nn1
→ i, -1.5
CC(C1CC1)n1nccc1NC(=O)COc1ccc(Cl)cc1 (stereo unspecified)
→ i, 0.06

Filtered by structure, the entries above with a tert-butyl group.
| Compound | Anaer choline gr | Anaer choline gr early |
| --- | --- | --- |
| CN(CCOc1ccc(-c2ccc3c(c2)OCO3)cc1C(C)(C)C)CC(=O)O | i | 0.6 |
| CC(C)(C)c1ccc(-c2nn3c(-c4cccnc4)nnc3s2)cc1 | i | 0.26 |
